Compound activity as filed in PubChem BioAssay.
GIV-Gai inh = inhibitors of GIV GBA-motif binding to rat Galpha-i3; percent of control (FP), % (test concentration not listed); 210,000 compounds, 0.42% hits; Galpha-i3/FITC-GIV peptide fluorescence polarization, 90 min; hits give low values; scaled: aluminum fluoride 0%, vehicle 100%; AID 1224905;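 active means replicate mean at 85% of control or lower, very high polarization wells dropped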;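 further: wells of about 15 µL received 100 nL stock; the first replicate is given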
Target sequence (P08753 whole entry, looked up): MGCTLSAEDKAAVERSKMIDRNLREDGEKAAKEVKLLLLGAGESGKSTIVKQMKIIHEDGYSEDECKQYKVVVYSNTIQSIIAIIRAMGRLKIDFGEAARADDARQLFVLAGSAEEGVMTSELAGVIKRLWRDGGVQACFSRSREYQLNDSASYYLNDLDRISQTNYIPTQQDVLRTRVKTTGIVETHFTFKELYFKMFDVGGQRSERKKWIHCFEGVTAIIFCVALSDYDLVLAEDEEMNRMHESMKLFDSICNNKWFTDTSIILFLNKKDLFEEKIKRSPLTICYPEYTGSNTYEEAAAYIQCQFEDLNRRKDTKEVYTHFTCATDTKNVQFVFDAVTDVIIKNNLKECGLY
The depositor's hits bear a star. A portion of the library. The share of hits here may be higher or lower than overall.

nr	Structure	GIV-Gai inh
1	O=c1c2cc3c(cc2nc(SCc2nc(-c4ccc(F)cc4)no2)n1C1CC1)OCO3	105.0
2	COc1ccc(COC(=O)C2=C(C)NC3=C(C(=O)CCC3)C2c2cc(Br)ccc2OC)cc1 (configuration not stated)	110.5
3	Nc1c(C(=O)c2ccccc2)sc2sc(C(=O)c3ccccc3)c(N)c12	107.4
4	O=S(=O)(NC1CCN(c2ncnc3c2CCC3)C1)c1ccccc1 (configuration not stated)	107.9
5	Cc1ccc(C2OC3(C(=O)c4ccccc4C3=O)C3C(=O)N(c4cccc(Cl)c4C)C(=O)C23)cc1 (configuration not stated)	112.7
6	CCOC(=O)C1=C(O)/C(=C/c2ccccc2OC)SC1=Nc1ccccc1	107.1
7	Cc1c(C(=O)N2CCN(c3ccccn3)CC2)sc2ncnc(N3CCC(C)CC3)c12	106.5
8	CCC(CC)C(=O)N1CCN(c2cc(=O)n(C(C)C)c(=O)n2C(C)C)CC1	104.2
9	O=c1c2ccccc2c(-c2ccc(F)cc2)nn1-c1cc(N2CCOCC2)ccc1[N+](=O)[O-]	99.9
10	O=S(=O)(Nc1ccc2c(c1)OCCO2)c1ccc2nncn2c1	100.8
11	COc1ccc(-c2nc3ccccc3c(=O)n2CC(=O)Nc2ccc(C)c(F)c2)cc1OC	111.7
12	CC(C)(C)c1ccc2c(c1)C1c3ccc(C(C)(C)C)cc3C2C2C(=O)N(c3ccc(F)cc3)C(=O)C12 (configuration not stated)	110.2
13	O=C1C(=O)N(c2ccc(Br)cc2)C(c2ccc(Br)cc2)/C1=C(/O)c1ccccc1 (configuration not stated)	106.6
14	CCC(Sc1nc(NCc2ccc(Cl)cc2)c2ccccc2n1)C(=O)N1CCOCC1 (configuration not stated)	109.1
15	CCOc1ccc(C2C(N3C(=O)c4ccccc4C3=O)C(=O)N2c2ccc(OC)c(OC)c2)cc1 (configuration not stated)	115.8
16	COc1ccc(-n2c(-c3ccc(Br)cc3)cn3c4c(=O)n(C)c(=O)n(C)c4nc23)cc1OC	100.8
17	CC(C)(C)C(=O)NC1CCN(C(=O)C2CCC2)C1 (configuration not stated)	104.8
18	CCOC(=O)c1c(C)n(CCOc2ccc(C(C)(C)c3ccccc3)cc2)c2c1cc(O)c1ccccc12	101.8
19	COC(=O)C1C(=O)NC(SCC(=O)Nc2ccc(Br)cc2)=C(C#N)C1c1ccccc1Cl (configuration not stated)	111.0
20	O=C(CCc1nc(-c2ccc(S(=O)(=O)N3CCOCC3)cc2)no1)N1CCCC1	111.0
21	CN(C)c1ccc(/C=C2/SC(=S)N(CN3CCCC3)C2=O)cc1	284.9
22	CC(=O)NC1=C(O)CC(C)(C)CC1=O	101.3
23	Cn1c(N2CCCC(C(=O)Nc3ccc4c(c3)OCCO4)C2)cc(=O)n(C)c1=O (configuration not stated)	108.4
24	Cc1cc2c(cc1S(=O)(=O)NC1CC1)N(C(=O)C1CC1)CC2	97.4
25	Cc1noc(C)c1C1CCCN1C(=O)c1cc(-c2ccccc2)on1 (configuration not stated)	103.3
26	COc1cc(-c2nc3sc4c(c3c(=O)[nH]2)CCCC4)cc(Br)c1OCc1ccccc1F	109.2
27	Cc1nc(N2CCC(C)CC2)c2c(C)c(C(=O)N3CCN(c4ccccc4)CC3)sc2n1	118.0
28	CC(=O)N1c2ccc(N)cc2C(C)(c2ccccc2)CC1(C)C (configuration not stated)	125.1
29	COc1ccc(CNc2c(C(=O)Nc3cccc(OC)c3)cnc3c2c(C)nn3-c2ccccc2)cc1	104.8
30	O=C(CCc1nc(-c2ccccc2)no1)NCc1noc(-c2ccccc2)n1	100.3
31	COc1ccc2nc(SCC(=O)Nc3ccc4c(c3)OCCO4)[nH]c2c1	106.7
32	CC1(C(=O)NCc2cccc(F)c2)CCCN(C(=O)c2ccc(Br)cc2)C1 (configuration not stated)	111.8
33	Cc1cc(N2CCC(C(=O)NC3CC3)CC2)n2nc(-c3ccc(Cl)cc3)cc2n1	108.2
34	CNC(=O)C1CCN(Cc2cc3ccccc3n2Cc2ccc(F)cc2)CC1	100.6
35	Cc1nc(N2CCN(C)CC2)c2c(C)c(C(=O)Nc3c(F)cccc3F)sc2n1	101.1
36	O=c1oc2ccc(Cl)cc2cc1-c1nc(-c2ccc(Br)cc2)cs1	117.8
37	COc1ccc(-c2cc(C(F)(F)F)n3nc(C(=O)NCc4ccc5c(c4)OCO5)nc3n2)cc1	103.2
38	Cn1c2c(c(=O)[nH]c1=O)C(c1cccc(Cl)c1Cl)C1=C(N2)c2ccccc2C1=O (configuration not stated)	111.5
39	Fc1ccc(CN2C3=NCCN3c3ccccc32)cc1	103.5
40	CCOC(=O)N1CCN(C(=O)c2ccc3nc(-c4ccc(OC)c(OC)c4)c(-c4ccc(OC)c(OC)c4)nc3c2)CC1	84.4*
41	Cc1c(Br)c([N+](=O)[O-])nn1CC(=O)Nc1sc2c(c1C(=O)OC(C)C)CCCC2	113.7
42	CCCCNC(=O)CSc1nc2sc(C(=O)OCC)c(C)c2c(=O)n1Cc1cccs1	104.5
43	O=C(NCc1ccccc1Cl)c1csc(Nc2ccccc2)n1	101.6
44	COc1ccc(Nc2nc(-c3ccc([N+](=O)[O-])cc3)nc3ccccc23)cc1	99.8
45	COc1cccc(NC(=O)CSC2=C(C#N)C(c3ccccc3)C(C(=O)Nc3ccccc3)=C(C)N2)c1 (configuration not stated)	105.2

Rewritten as labelled records: entries from further up
[35] Cc1nc(N2CCN(C)CC2)c2c(C)c(C(=O)Nc3c(F)cccc3F)sc2n1
- GIV-Gai inh = 101.1

[36] O=c1oc2ccc(Cl)cc2cc1-c1nc(-c2ccc(Br)cc2)cs1
- GIV-Gai inh = 117.8

[37] COc1ccc(-c2cc(C(F)(F)F)n3nc(C(=O)NCc4ccc5c(c4)OCO5)nc3n2)cc1
- GIV-Gai inh = 103.2

The results go on.
nr	Structure	GIV-Gai inh
46	Cc1cc2c(cc1C)-c1nc3ccccc3cc1C2=O	112.1
47	CC(C)(C)C(=O)[C@@H]1[C@@H](c2ccccc2Cl)C(C#N)(C#N)[C@H]2C=Cc3ccccc3N12	128.0
48	C1CCC2(CC1)OC1COC3OC4(CCCCC4)OC3C1O2 (configuration not stated)	116.9
49	CC1SC2(C(=O)Nc3ccccc32)N(c2ccc(F)cc2)C1=O (configuration not stated)	111.1
50	O=C(CCc1nc(-c2ccc(N3CCCC3)cc2)no1)N1CCN(c2ccc(Cl)cc2)CC1	98.5
51	CCCCNC(=O)CSc1nc2c(sc(=S)n2-c2ccccc2OCC)c(=O)[nH]1	108.2
52	CCCNC(=O)C1CC(=O)N(c2ccc3c(c2)CCN3C(=O)C2CC2)C1 (configuration not stated)	103.8
53	O=S(=O)(c1cccs1)N1CCC(Oc2cccc(C(F)(F)F)c2)CC1	95.0
54	COC(=O)c1c(NC(=O)Cn2nc(C(F)(F)F)c(Br)c2C)sc2c1CCCC2	116.2
55	COc1ccc(-c2ccc(N3CCN(C)CC3)nn2)cc1S(=O)(=O)N1CCCC1	98.3
56	CCOC(=O)c1ccc(N2C(=O)C3C(c4ccccc4Cl)OC4(C(=O)c5ccccc5C4=O)C3C2=O)cc1 (configuration not stated)	102.4
57	Cc1ccc(CN=C2Nc3ccccc3NC23CCCCC3C)cc1 (configuration not stated)	96.5
58	CCN(CC)C(=O)N1C[C@@H]2C[C@H](NS(=O)(=O)c3cccs3)[C@H]1C2	98.3
59	Cc1cc(N(C)C)nc(N2CCN(C(=O)c3ccc(C(C)(C)C)cc3)CC2)n1	103.7
60	CCOC(=O)N1CCN(C(=O)c2c[nH]c3ccc(S(=O)(=O)N(C)c4ccc(C(C)C)cc4)cc3c2=O)CC1	106.0
61	COCCCNC1=NCCNC12CCN(S(=O)(=O)c1ccc(C)c(C)c1)CC2	103.0
62	O=C1C=C(c2cccs2)C[C@H](c2cccs2)[C@H]1n1nnc([N+](=O)[O-])n1	108.7
63	O=C(NC1CCCC1)C1CCc2sc(C(=O)N3CCCC3)cc2C1 (configuration not stated)	100.4
64	CC1=C(C(=O)OCC2CCCO2)C(c2ccc([N+](=O)[O-])cc2)C2=C(CC(c3cccs3)CC2=O)N1 (configuration not stated)	98.6
65	Cn1c2c(c(=O)n(C)c1=O)C(c1cccc(F)c1)C1=C(N2)c2ccccc2C1=O (configuration not stated)	106.4
66	COc1ccc(C2(O)CN(c3cc(C)ccc3C)C3=[N+]2CCCC3)cc1OC (configuration not stated)	119.5
67	Cc1c(N=Cc2ccccc2OCc2ccccc2)c(=O)n(-c2ccccc2)n1C	99.9
68	C=CCNc1ncnc2c1c(-c1ccccc1)cn2-c1ccc(Cl)cc1	105.9
69	CCc1ccc(NS(=O)(=O)c2cc(-c3nc(C)cs3)cs2)cc1	99.6
70	COc1ccccc1/C=c1\sc2n(c1=O)C(N)=C(C#N)C(c1ccccc1OC)C=2C#N (configuration not stated)	110.8
71	O=C(c1ccccc1F)N1CCN=C1N1CCCC1	102.9
72	COC(=O)C1=CN(Cc2ccc(OC)c(OC)c2)C=C(C(=O)OC)C1c1ccccc1OCc1ccccc1	107.0
73	O=C1C(N2CCOCC2)CCCN1CC1CC1 (configuration not stated)	107.2
74	COC(=O)c1ccc2c3c(onc13)-c1ccccc1C2=O	104.0
75	Cn1c(CNC(=O)c2ccccc2)nnc1SCC(=O)N1N=C(c2ccc(Br)cc2)CC1c1ccc(F)cc1 (configuration not stated)	112.6
76	O=S(=O)(c1cccc2nsnc12)N1CCc2nc(-c3ccccc3)ncc2C1	105.3
77	O=C(Nc1cc(C(=O)N2CCCCCC2)ccc1N1CC2CC(C1)c1cccc(=O)n1C2)c1ccccc1Br (configuration not stated)	119.8
78	Cc1c(C(=O)NCCN(C)C)sc2ncnc(N3CCN(c4ccccc4F)CC3)c12	102.7
79	COc1cccc(C2Nc3ccc4ccccc4c3C3=C2C(=O)CC(C)(C)C3)c1OCc1ccc(Cl)cc1Cl (configuration not stated)	116.0
80	CNS(=O)(=O)c1cc(S(=O)(=O)NC)c2cccc3c2c1NC3=O	103.7
81	CC(=O)C1=NN(c2ccc(Cl)cc2)C2(S1)SC(c1ccc(C)cc1)(c1ccc(C)cc1)c1ccccc12 (configuration not stated)	114.9
82	COc1ccc(/C=C/C(=O)N2c3ccccc3-c3c(ssc3=S)C2(C)C)cc1	109.4
83	COc1ccc2c(c1)c(CC(=O)Nc1c(C)n(C)n(-c3ccccc3)c1=O)c(C)n2C(=O)c1ccc(Cl)cc1	104.8
84	COc1ccc(S(=O)(=O)N2CCC(n3cnc4cc(Cl)ccc4c3=O)CC2)cc1OC	108.3
85	O=C1/C(=C\c2ccccc2)C2=C(C(=O)N(c3ccccc3)C2c2ccccc2F)N1c1ccccc1 (configuration not stated)	103.7
86	c1ccc2c(c1)cc(-c1nc3ccccc3[nH]1)c1nc3ccccc3n12	107.3
87	CCOC(=O)N1CCC(Nc2ncnc3c2cnn3-c2ccc(C)cc2C)CC1	111.8
88	CCc1onc(C)c1C1CCCN1C(=O)c1cc(C(C)C)on1 (configuration not stated)	93.3
89	COc1ccccc1C(O)(C(=O)NN(C(=O)c1ccccc1)c1ccccc1Cl)c1ccccc1OC	103.6
90	CCCN1C(=O)c2ccccc2Sc2cc(NC(=O)CN3C(=O)COc4ccccc43)ccc21	107.1
91	COC(=O)C1=C(C(=O)OC)SC(=C2C(=S)C(C)(C)N(C(=O)c3ccccc3)c3ccc(OC(=O)c4ccccc4)cc32)S1	108.4
92	COc1ccc(N2CCN(c3nccc4ccc(C(=O)Nc5ccc(F)cc5F)cc34)CC2)cc1	99.6
93	CCOC(=O)C1=c2s/c(=C/c3ccccc3I)c(=O)n2C(N)=C(C#N)C1c1ccccc1I (configuration not stated)	101.2
94	O=C(Cn1c(=O)c(CCC(=O)NC2CCCC2)nc2ccccc21)Nc1ccc(F)c(F)c1	96.7
95	CCCCOc1c(OC)cccc1C1CC(=O)Nc2c1c(C)nn2-c1nc2ccccc2s1 (configuration not stated)	98.9
96	CC(C)(C)NC(=O)c1cccc(Nc2ncc(-c3cccc(F)c3)cn2)c1	100.8
97	Cc1noc(C)c1S(=O)(=O)N1CSC[C@@H]1C(=O)NCc1csc(-c2ccccc2)n1	106.0
98	CC(C(=O)N1c2ccccc2-c2c(ssc2=S)C1(C)C)N1C(=O)c2ccccc2C1=O (configuration not stated)	114.6
99	CC(C)C(=O)N1CCCN(S(C)(=O)=O)CC1	99.3
100	CCOc1ccc(CN2CCCC2c2cc(C)on2)cc1 (configuration not stated)	104.5
101	CCCCN(CCCC)CC(O)CN(c1ccc(C)cc1)S(=O)(=O)c1ccccc1 (configuration not stated)	107.7
102	O=C1/C(=C/c2ccc(-c3ccc([N+](=O)[O-])cc3)o2)C=C(c2ccccc2)N1c1ccc(Nc2ccccc2)cc1	121.3
103	C1=CN2CCN=C2C(N2CCN(Cc3ccccc3)CC2)=N1	139.7
104	CCOc1ccc(-n2c(SCC(=O)Nc3ccc(Br)cc3)nc3n[nH]c(C)c3c2=N)cc1	100.4
105	COc1ccc(-n2c(SCC(=O)N3CCCC3)nc3cc(C(=O)NCc4ccco4)ccc3c2=O)cc1OC	107.6

(more compounds)
nr	Structure	GIV-Gai inh
106	CCOC(=O)c1sc2nc(CC(=O)OC)nc(Nc3ccc(C)cc3Br)c2c1C	95.9
107	CCOc1ccc(NC(=O)c2ccc(F)c(S(=O)(=O)N3CCN(c4cccc(C)c4)C(C)C3)c2)cc1 (configuration not stated)	110.5
108	CCC(C)NC(=O)c1cc(-c2ccc(NC(C)=O)cc2)nc2ccc(C)cc12 (configuration not stated)	108.4
109	Cc1ccc(C)c(N2CC(O)(c3ccc([N+](=O)[O-])cc3)[N+]3=C2SCCC3)c1 (configuration not stated)	106.7

Individual results from the list:
Entry of `CCOC(=O)c1sc2nc(CC(=O)OC)nc(Nc3ccc(C)cc3Br)c2c1C` under GIV-Gai inh: 95.9
Entry of `CCOc1ccc(NC(=O)c2ccc(F)c(S(=O)(=O)N3CCN(c4cccc(C)c4)C(C)C3)c2)cc1` (configuration not stated) under GIV-Gai inh: 110.5
Entry of `CCC(C)NC(=O)c1cc(-c2ccc(NC(C)=O)cc2)nc2ccc(C)cc12` (configuration not stated) under GIV-Gai inh: 108.4
Entry of `Cc1ccc(C)c(N2CC(O)(c3ccc([N+](=O)[O-])cc3)[N+]3=C2SCCC3)c1` (configuration not stated) under GIV-Gai inh: 106.7
